Source: PubChem (several laboratories)
BCLXL inh: inhibitors of human Bcl-xL. Q07817. GST-Bcl-xL / FITC-Bim BH3 peptide fluorescence polarization. inhibition, % at 10.9 µM. actives 0.7% (n = 320,000). AID 2129;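 active = inhibition above the mean of all tested compounds plus 3 SD, cutoff set per campaign, cut at about 30% in these data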;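 also: 0% = DMSO wells and 100% = unlabeled Bim-BH3 peptide competitor; inhibitors lower millipolarization by displacing the labeled peptide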
GLD-1 RNA inh: GLD-1-TGE RNA interaction inhibition (C. elegans) | Q17339 | purified GLD-1 + fluorescein TGE RNA, fluorescence polarization | inhibition, % at 5.96 µM | actives 0.44% (n = 320,000) | AID 2280;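 active = percent inhibition above a per-plate cutoff, the plate mean of test compounds plus 3 SD, cut at about 30% in these data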;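 also: 0% = DMSO wells with GLD-1 and probe and 100% = wells lacking GLD-1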
Fam108B inh: Fam108B inhibition, counter-screen for RBBP9 inhibitors | recombinant Fam108B, FP-Rh probe fluorescence polarization | inhibition, % at 9.51 µM | actives 0.33% (n = 300,000) | AID 1947;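 active = inhibition above the screen mean inhibition plus 3 SD, computed separately per campaign, cut at about 18% in these data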;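 also: inhibitors lower polarization as less probe binds the enzyme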
Efflux pump mplx: blocks antifungal efflux pumps in multiplex yeast assay; S. cerevisiae Candida pump triplex, Nile Red efflux; inhibition, % at 10 µM; actives 0.44% (n = 330,000);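 active = plate passing quality check with inhibition over a set limit, or well fluorescence over plate mean plus 4 SD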;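 also: Nile Red retained in pooled yeast measured as flow cytometry median fluorescence; 0% = buffer negative control and 100% = Enniatin B positive control; higher means more Nile Red kept so more efflux inhibition; some compounds called inactive have numbers as strong as hits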
MCL1 BIM primary: disrupts human MCL1 binding to BIM-BH3 peptide | actives 0.68% (n = 320,000) | AID 2057 | inhibition, % at 10.9 µM | Q07820 | GST-MCL1 / FITC-Bim-BH3 fluorescence polarization;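 active = inhibition above the mean inhibition of all tested compounds plus 3 SD, set per campaign, cut at about 40% in these data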;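 also: 0% = DMSO wells and 100% = unlabeled Bim-BH3 peptide control; higher means more loss of mP so more displacement of Bim peptide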
GRK2 aptamer HTS: human GRK2 inhibition via aptamer displacement; P25098; bead flow cytometry, FAM-aptamer displacement from GRK2; actives 0.59% (n = 330,000); inhibition of aptamer binding, % at 10 µM;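 active = inhibition of aptamer binding above 40%, roughly 3 SD of noise, on plates passing a quality check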;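 also: median bead fluorescence of bound FAM aptamer so fluorescent compounds give negative values; no value below 0 was filed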
VLA-4 inh: inhibition in a human VLA-4 binding assay | VLA-4 expressing cells, ligand binding flow cytometry | inhibition, % (about 7 µM as worked out from the volumes in the protocol) | actives 0.2% (n = 330,000); in the data active = inhibition above about 50%
Target sequence (P13612 whole entry, looked up): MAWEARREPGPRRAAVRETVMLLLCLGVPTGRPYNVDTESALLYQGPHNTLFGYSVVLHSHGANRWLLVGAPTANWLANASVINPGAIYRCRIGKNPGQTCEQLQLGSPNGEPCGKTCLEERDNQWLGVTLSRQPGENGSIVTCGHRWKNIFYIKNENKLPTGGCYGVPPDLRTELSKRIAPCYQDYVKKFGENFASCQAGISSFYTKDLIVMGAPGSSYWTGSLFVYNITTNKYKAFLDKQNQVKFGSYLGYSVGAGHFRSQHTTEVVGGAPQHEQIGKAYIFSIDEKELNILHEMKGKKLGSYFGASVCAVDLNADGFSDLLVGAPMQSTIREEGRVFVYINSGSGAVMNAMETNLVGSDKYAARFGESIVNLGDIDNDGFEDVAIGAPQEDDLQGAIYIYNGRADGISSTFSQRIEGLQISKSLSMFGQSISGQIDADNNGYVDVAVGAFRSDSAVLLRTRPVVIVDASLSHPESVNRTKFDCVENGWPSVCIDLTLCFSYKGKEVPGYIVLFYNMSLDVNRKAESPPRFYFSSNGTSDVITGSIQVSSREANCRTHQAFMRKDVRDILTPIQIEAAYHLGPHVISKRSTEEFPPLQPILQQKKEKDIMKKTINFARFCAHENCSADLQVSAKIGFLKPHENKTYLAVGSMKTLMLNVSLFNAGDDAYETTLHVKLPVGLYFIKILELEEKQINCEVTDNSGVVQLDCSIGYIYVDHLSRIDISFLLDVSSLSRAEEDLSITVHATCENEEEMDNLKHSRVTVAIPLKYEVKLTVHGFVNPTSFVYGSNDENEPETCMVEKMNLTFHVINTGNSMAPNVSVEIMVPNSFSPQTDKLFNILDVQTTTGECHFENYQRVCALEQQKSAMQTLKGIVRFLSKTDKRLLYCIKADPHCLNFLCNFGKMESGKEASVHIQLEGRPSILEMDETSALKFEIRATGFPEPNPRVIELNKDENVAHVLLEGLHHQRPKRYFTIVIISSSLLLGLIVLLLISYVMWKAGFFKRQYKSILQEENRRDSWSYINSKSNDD
MEX-5 binding: C. elegans MEX-5 TCR-2 RNA binding activity. MEX-5/FITC-TCR2 RNA binding, fluorescence polarization; active compounds read low. activity score (negative = inhibition of binding), % at 10 µM. actives 0.38% (n = 300,000). Q9XUB2;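 active = inhibition past about -25% in most replicates, and total fluorescence under double the plate's negative control median, limit read from the data; inconclusive = replicates evenly split on the limit, or fluorescence at least double controls; inactive = too little inhibition in most replicates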;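 also: 0% = DMSO and -100% = 5 µM competing unlabeled TCR2 RNA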
An asterisk follows results filed as active; i = inactive; ? = inconclusive; · = no result given. An excerpt. The share of hits here may be higher or lower than overall.

SMILES	BCLXL inh	GLD-1 RNA inh	Fam108B inh	Efflux pump mplx	MCL1 BIM primary	GRK2 aptamer HTS	VLA-4 inh	MEX-5 binding
Cc1cc(C(=O)OCC(=O)Nc2cc(S(=O)(=O)N3CCOCC3)ccc2Cl)c(C)o1	4	-8	3	0.0	0	3	5	-3.6
CCCCn1nc(-c2ccccc2)c2nc3ccccc3nc21	24	9	2	0.2	20	9	i	?
CCOC(=O)c1c(C)[nH]c2c1cc(O)c1ccccc12	5	8	9	-0.5	3	1	0	-0.9
O=C(c1ccc2c(c1)OCCO2)C1CCN(S(=O)(=O)c2ccc(F)cc2)CC1	1	3	0	-0.1	8	14	5	·
CC(C)CCNC(=O)[C@@H](NC(=O)c1c(F)cccc1F)C(C)C	1	7	3	-0.1	7	0	22	2.3
Cc1ccc(C(=O)NC(=S)NCCCN2CCOCC2)cc1	5	-3	3	-0.1	8	0	8	3.0
O=C(Nc1ccc(N2CCOCC2)cc1N1CCOCC1)c1ncoc1-c1cccc(F)c1	1	6	2	0.1	-2	0	0	1.0
CCN(CC)S(=O)(=O)c1cccc(C(=O)OCC(=O)Nc2ccccc2OC(F)F)c1	-2	1	3	-0.1	-4	0	-1	-0.6
COc1ccc(CC(=O)Nc2cc(S(=O)(=O)N3CCCCC3)ccc2N2CCN(C)CC2)cc1	0	-2	2	0.0	0	0	11	-0.1
CC1(C)CC(=O)C2=C(C1)N1C(=C(C#N)C2c2ccccc2Cl)N=C(N)c2ccccc21 (centres undefined)	5	19	6	0.0	5	2	18	-3.8
COc1cc(OC)c(C(=O)NCCCn2ccnc2)cc1OC	2	-2	-1	-0.1	5	4	4	0.5
CC(=O)Nc1cccc(NS(=O)(=O)c2ccccc2[N+](=O)[O-])c1	6	1	-1	-0.1	5	0	20	-3.2
CCOCCCn1c(=S)[nH]c2cc(C(=O)NCc3ccc(F)cc3)ccc2c1=O	-1	-10	2	-0.1	0	1	0	-1.9
O=C(c1cc(S(=O)(=O)N2CCOCC2)ccc1F)N1CCN(Cc2ccccc2)CC1	4	4	3	0.0	6	0	4	-1.7
O=C(Nc1ccc2c(c1)Cc1ccccc1-2)c1ccco1	3	-4	-1	0.1	-6	0	19	-7.3
Cc1[nH]n2c(=O)c3c(nc2c1-c1ccccc1)CCC3	3	5	-5	-0.2	11	1	7	0.1
CC(=O)c1c(C)[nH]c(C(=O)OCC(=O)Nc2cc(S(=O)(=O)N3CCCC3)ccc2Cl)c1C	-1	4	-1	-0.1	-20	0	2	-1.5
Cc1ccc(S(=O)(=O)N2CCC(C(=O)NCc3ccccc3Cl)CC2)cc1	-1	-6	0	0.5	3	3	0	-0.8
CCn1cc(C(=O)OCC(=O)NCc2ccccc2Cl)c(=O)c2ccc(C)nc21	-6	5	-2	0.0	-9	0	4	-0.5
O=C1CN(C(=O)c2c(F)cccc2F)C(c2ccc(F)cc2)c2cc(Br)ccc2N1 (centres undefined)	5	4	-7	-0.1	0	0	11	-1.5
COc1ccc(-c2cccc(NS(=O)(=O)c3cc([N+](=O)[O-])c(C)c([N+](=O)[O-])c3)c2)nn1	12	-1	-3	0.0	14	4	-1	-0.1
Cc1ccsc1-c1n[nH]c(=S)n1CC(C)C	-6	2	4	-0.1	-10	6	-6	0.2
CCOC(=O)C1CCN(C(=O)c2ccc3c(c2)NC(=O)/C(=C\c2ccc(C)cc2)S3)CC1	37*	35*	4	0.6	42*	6	-11	?
O=C(OCc1cc(=O)oc2cc(O)ccc12)c1cc(S(=O)(=O)N2CCOCC2)ccc1F	5	2	-3	0.0	-4	2	2	0.5
C=CCN(CC=C)C(=O)C1CCN(S(=O)(=O)c2ccc(N3CCCC3=O)cc2)CC1	6	1	2	0.1	2	0	3	-1.9

Complete entries, looked up by structure. Order of screens: BCLXL inh	GLD-1 RNA inh	Fam108B inh	Efflux pump mplx	MCL1 BIM primary	GRK2 aptamer HTS	VLA-4 inh	MEX-5 binding
CCOCCCn1c(=S)[nH]c2cc(C(=O)NCc3ccc(F)cc3)ccc2c1=O in the list: -1	-10	2	-0.1	0	1	0	-1.9
CCn1cc(C(=O)OCC(=O)NCc2ccccc2Cl)c(=O)c2ccc(C)nc21 in the list: -6	5	-2	0.0	-9	0	4	-0.5
CC(=O)c1c(C)[nH]c(C(=O)OCC(=O)Nc2cc(S(=O)(=O)N3CCCC3)ccc2Cl)c1C in the list: -1	4	-1	-0.1	-20	0	2	-1.5
CCCCn1nc(-c2ccccc2)c2nc3ccccc3nc21 in the list: 24	9	2	0.2	20	9	i	?
COc1ccc(-c2cccc(NS(=O)(=O)c3cc([N+](=O)[O-])c(C)c([N+](=O)[O-])c3)c2)nn1 in the list: 12	-1	-3	0.0	14	4	-1	-0.1

The list continues.
SMILES	BCLXL inh	GLD-1 RNA inh	Fam108B inh	Efflux pump mplx	MCL1 BIM primary	GRK2 aptamer HTS	VLA-4 inh	MEX-5 binding
Cc1ccc(C)c(NC(=O)c2ccccc2Sc2ccc([N+](=O)[O-])cc2Cl)c1	-1	4	-6	0.0	-1	3	-4	-1.5
O=C(NC1CCCc2ccccc21)C1CCN(S(=O)(=O)c2ccccc2)CC1 (centres undefined)	-1	3	0	0.0	-3	1	-15	-0.6
COc1ccc(S(=O)(=O)C(C#N)c2nc3ccccc3nc2N2CCCC(C)C2)cc1 (centres undefined)	43*	33*	0	0.1	41*	7	8	-7.3
COc1ccc(S(=O)(=O)N2CCCCC2)cc1NC(=O)CNc1ccc(F)cc1C	-5	4	·	0.0	-14	1	1	·
Cc1nc2cc(C(F)(F)F)ccc2n1CCNc1nc(-c2cc(Cl)c(N)c(Cl)c2)cs1	0	9	5	-0.2	2	3	24	4.2
CC(C)(C)n1nnnc1C(c1cccs1)N(Cc1cccnc1)Cc1ccccc1Cl (centres undefined)	5	1	-2	-0.1	5	0	8	1.7
C/C(Cn1nnc2ccccc21)=N\OC(=O)c1ccccc1C	5	9	-1	0.0	6	75*	-21	1.0
Cn1nc(-c2ccccc2)cc1NC(=O)CCCC(=O)O	-2	16	1	0.1	1	0	1	1.4
COc1ccccc1Nc1nc2ccc(C)cc2n2cnnc12	-2	2	-6	0.2	-3	2	-491	1.7
COc1ccc(COC(=O)c2cccc(S(=O)(=O)N3CCN(C(C)=O)CC3)c2)cc1	3	-4	3	-0.1	0	0	-36	0.3
CCN(CC)S(=O)(=O)c1ccc(OC)c(NC(=O)C(C)Oc2ccc3c(C)cc(=O)oc3c2)c1 (centres undefined)	8	4	0	0.6	8	2	19	1.2
CCC(C)N1CCCC1C(=O)Nc1c(C)cc(C)cc1C (centres undefined)	1	-2	3	0.2	-8	0	-3	-1.6
CC1(C)CC(=O)C2=C(C1)N(CCN1CCOCC1)C1=C(C(=O)CC(C)(C)C1)C2c1cccc(Cl)c1	2	-6	0	0.1	-1	1	8	-1.9
O=C(NCc1ccccc1Cl)C1CCN(S(=O)(=O)c2cccs2)CC1	8	2	2	0.3	5	2	-8	1.1
CCOC(=O)c1cc2ccc3ccccc3c2oc1=O	-2	7	4	0.1	-2	3	14	2.1
O=C1CN(C(=O)c2ccccc2Br)C(c2ccc(F)cc2)c2cc(F)ccc2N1 (centres undefined)	0	1	2	-0.1	2	5	3	2.4
O=S(=O)(NC1CCCC1)c1cccc(S(=O)(=O)N2CCC(n3nnc4ccccc43)CC2)c1	7	1	-5	-0.2	5	1	-9	-1.1
Cc1ccc(C)c(CN2C(=O)CSc3ccc(C(=O)N4CCCC4)cc32)c1	3	-5	1	0.1	2	0	-9	3.4
CCOCC(=O)Nc1cccc(OC)c1	0	0	1	-0.1	3	3	1	1.0
O=c1[nH]c(C2CCN(S(=O)(=O)/C=C/c3ccccc3)CC2)nc2c1nnn2Cc1ccc(F)cc1	2	10	-11	0.0	5	5	-1	-3.5
COc1ccc(Cl)cc1NS(=O)(=O)c1cccc2cccnc12	-3	-4	1	-0.1	0	2	13	0.4
O=C(CSCc1nc2c(nnn2Cc2ccc(F)cc2)c(=O)[nH]1)Nc1c(Cl)cc(Cl)cc1Cl	4	-1	-4	0.2	1	1	6	-2.7
O=C(NCc1ccc2c(c1)OCO2)C1CC(=O)N(CCc2ccccc2)C1 (centres undefined)	2	6	3	-0.1	1	1	18	-1.1
CC1CCN(C(=O)c2[nH]cnc2C(=O)N[C@@H](C)C(=O)OC(C)(C)C)CC1	3	6	1	-0.1	-4	2	-4	1.7
CCC(=O)N1C(C(=O)O)CSC1c1ccc(OC)cc1 (centres undefined)	4	1	1	-0.2	5	0	15	-1.8
(cont.)
SMILES	BCLXL inh	GLD-1 RNA inh	Fam108B inh	Efflux pump mplx	MCL1 BIM primary	GRK2 aptamer HTS	VLA-4 inh	MEX-5 binding
COc1ccc(CC(=O)c2cc(OC)c(OC)cc2CC(=O)O)cc1OC	3	-1	-3	0.0	-1	0	-4	-0.9
CCCc1cc(C(=O)Cc2ccc(C(=O)OCC)o2)c(O)cc1O	-12	4	0	0.3	-25	0	-4	-1.9
O=C(NCCOc1ccccc1)c1cc(S(=O)(=O)N2CCOCC2)ccc1F	7	1	-2	0.1	2	0	-8	2.3
CC(=O)Nc1cccc(/C(C)=N/Nc2nc3ccccc3s2)c1	-1	-2	5	0.1	0	0	9	0.2
COc1cccc2sc(NNC(=O)c3nc4ccccc4s3)nc12	4	0	0	0.1	-7	0	-2	0.4
CCc1ccccc1-n1c(SCC(=O)NC)nnc1-c1ccco1	5	4	-4	-0.2	1	0	5	-3.2
O=C(Nc1ccc(C(=O)Oc2ccccc2)c(O)c1)c1ccco1	-1	-25	-4	0.0	2	0	12	-0.6
COc1ccccc1NC(=O)CC(c1ccc(OC(C)C)cc1)c1ccccc1OC (centres undefined)	2	-3	-7	0.4	4	0	0	0.3
Cc1c(NC(=O)c2ccc(N(C)S(C)(=O)=O)cc2)c(=O)n(-c2ccccc2)n1C	5	3	1	0.1	2	0	48	-0.8
O=C(Nc1ccccc1Oc1ccccc1)c1cccc([N+](=O)[O-])c1	-1	5	0	0.0	-2	0	7	-1.4
O=C(c1cccc(S(=O)(=O)N2CCOCC2)c1)N1CCN(Cc2ccc3c(c2)OCO3)CC1	4	-6	2	0.1	5	1	6	1.1
O=C(CNC(=O)c1ccccc1)OCC(=O)N1N=C(c2ccc(Cl)cc2)CC1c1ccco1 (centres undefined)	-2	5	0	0.1	-8	1	0	1.0
COc1ccccc1N1CCN(C(=O)C2CCN(S(=O)(=O)c3ccc(F)cc3)CC2)CC1	8	6	-1	0.1	7	0	1	-1.1
CN(C)S(=O)(=O)c1ccc(Cl)c(NC(=O)CN2CCN(Cc3ccc4c(c3)OCO4)CC2)c1	-1	0	2	0.1	-1	0	5	0.4

Six entries out of the list above, arranged by the value under GLD-1 RNA inh, rising:
| compound | GLD-1 RNA inh |
| --- | --- |
| CC1(C)CC(=O)C2=C(C1)N(CCN1CCOCC1)C1=C(C(=O)CC(C)(C)C1)C2c1cccc(Cl)c1 | -6 |
| CC(=O)Nc1cccc(NS(=O)(=O)c2ccccc2[N+](=O)[O-])c1 | 1 |
| O=C(NCc1ccccc1Cl)C1CCN(S(=O)(=O)c2cccs2)CC1 | 2 |
| O=C1CN(C(=O)c2c(F)cccc2F)C(c2ccc(F)cc2)c2cc(Br)ccc2N1 (centres undefined) | 4 |
| Cn1nc(-c2ccccc2)cc1NC(=O)CCCC(=O)O | 16 |
| CCOC(=O)C1CCN(C(=O)c2ccc3c(c2)NC(=O)/C(=C\c2ccc(C)cc2)S3)CC1 | 35* |
